TRPML1 inh: blocks the human TRPML1 channel; actives 0.02% (n = 390,000); activity change, negative = inhibition, % (no concentration beside the values); TRPML1-inducible cells, Ca2+ dye fluorescence, FDSS; active compounds read low; inhibition of EC80 agonist-evoked calcium signal; in the data active means activity change below about -50%; inconclusive means about -30% to -50%; inactive means above about -30%;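 further: stimulus is agonist 54-4 at its EC80 concentration; on the % scale 0 is the no-effect control and ±100 the full control effect; compound concentration not given in the record; the text of the record puts the active cut at -80%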
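TRPML1-DL cells, Tet-induced overnight (~16 h, 37 °C) at 1,500 cells/well, were loaded with Ca8 no-wash dye plus quencher for 45-90 min at room temperature. Compounds were pinned during FDSS kinetic reading; agonist 54-4 at EC80 (4 uM final) then added.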
CtBP-E1A blk: inhibitors of CtBP/E1A interaction | activity change, % (concentration not given with the values) | AlphaScreen GST-E1A/His-CtBP binding, 1536-well; active compounds read low; control for the full effect not named in the record | actives 0.49% (n = 340,000); in the data active means activity change below about -65%; inconclusive means about -30% to -65%; inactive means above about -30%; further: on the % scale 0 is the no-effect control and ±100 the full control effect
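AlphaScreen with 125 nM GST-E1A and 125 nM His-CtBP (5X stocks) in Tris pH 8.0, 300 mM NaCl, BSA, Tween 20, TCEP. Compounds preincubated 2 h at 37 deg C, then glutathione donor/nickel acceptor beads added for 1 h at 37 deg C in dark.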
D2 PAM: positive allosteric modulators of human D2 dopamine receptor; potentiation, % (concentration not given with the values); P14416; DiscoveRx D2 beta-arrestin cells, luminescence, 90 min; 100% = 57 uM dopamine signal; actives 0.23% (n = 360,000); active = potentiation of 50% or more; inconclusive = 30% to 50%; inactive = 30% or less;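 further: compound concentration not given in the record; tested on top of an EC20 dose of dopamine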
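PathHunter beta-arrestin assay in DiscoveRx D2 cells. Compounds were added with an EC20 of dopamine (50 nM final) for 90 min at 37 deg C. Luminescence was read 1 h after detection reagent, with 57 uM dopamine as the EC100 control.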
TRPV1 potentiator: potentiators of human vanilloid receptor 1 (TRPV1) | Q8NER1 | TRPV1-expressing cells, Fluo-8 calcium influx, capsaicin EC20 potentiation; host cell line not named in the record; control for the full effect not named in the record | potentiation, % at 8.33 µM | actives 0.02% (n = 320,000) | AID 540277; active means potentiation above 80%; inconclusive means 30% to 80%; inactive means below 30%; further: 0% is about no effect
Target sequence (Q8NER1 whole entry, looked up): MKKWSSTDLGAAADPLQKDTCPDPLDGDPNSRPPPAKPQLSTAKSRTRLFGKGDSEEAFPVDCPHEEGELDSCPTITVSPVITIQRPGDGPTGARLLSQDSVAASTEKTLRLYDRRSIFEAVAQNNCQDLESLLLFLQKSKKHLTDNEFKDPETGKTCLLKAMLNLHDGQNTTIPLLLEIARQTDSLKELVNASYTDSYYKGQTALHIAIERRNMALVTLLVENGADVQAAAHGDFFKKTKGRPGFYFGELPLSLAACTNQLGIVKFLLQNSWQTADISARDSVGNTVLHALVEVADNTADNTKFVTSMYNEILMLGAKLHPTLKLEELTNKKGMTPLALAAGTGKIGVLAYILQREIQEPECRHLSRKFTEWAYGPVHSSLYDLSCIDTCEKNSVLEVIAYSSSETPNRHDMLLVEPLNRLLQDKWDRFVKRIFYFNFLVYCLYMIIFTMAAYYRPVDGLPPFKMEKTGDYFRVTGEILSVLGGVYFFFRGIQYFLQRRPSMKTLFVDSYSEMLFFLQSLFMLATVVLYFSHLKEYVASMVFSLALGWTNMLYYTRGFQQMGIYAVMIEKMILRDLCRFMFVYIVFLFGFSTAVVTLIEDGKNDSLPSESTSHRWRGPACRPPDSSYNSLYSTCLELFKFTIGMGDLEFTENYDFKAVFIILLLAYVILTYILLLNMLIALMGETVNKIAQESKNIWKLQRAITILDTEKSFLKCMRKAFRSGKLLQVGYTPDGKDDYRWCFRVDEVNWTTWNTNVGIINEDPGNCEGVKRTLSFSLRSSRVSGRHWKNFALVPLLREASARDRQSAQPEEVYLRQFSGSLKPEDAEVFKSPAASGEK
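Fluo-8 calcium influx in TRPV1-expressing cells, kinetic read (ex 480/em 520 nm). Compound added and read 3 min for agonist activity, followed by capsaicin at EC20 final and 2 min further read for enhancement.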
Six1-Eya2 inh: inhibitors of human Six1/Eya2 interaction; Q15475+O00167; activity change, % (no concentration beside the values); AID 651725; AlphaScreen GST-Six1/His-Eya2 binding, biochemical; active compounds read low; control for the full effect not named in the record; actives 0.56% (n = 360,000); in the data active = activity change below about -65%; inconclusive = about -30% to -65%; inactive = above about -30%; further: on the % scale 0 is the no-effect control and ±100 the full control effect
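AlphaScreen luminescence read after one hour at 37 °C in darkness. Pin-transferred compounds met GST-Six1 and His-Eya2 protein (5X stock 250 nM/500 nM) plus glutathione donor and Ni-chelate acceptor beads (5X, 50 ug/mL).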
TRPML1 ag: human mucolipin-1 channel agonism; Q9GZU1; TRPML1-expressing cells, Ca2+ dye fluorescence, FDSS; host cell line not named in the record; reference of the full effect not given here; activation, % (no concentration beside the values); actives 0.12% (n = 410,000); AID 624414; in the data active = activation above about 50%; inconclusive = about 30% to 50%; inactive = below about 30%; further: 0% is about no effect; the text of the record puts the active cut at 80%
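Agonist activity was taken from a 110 s kinetic Ca2+ dye read on the FDSS after pinning compounds onto TRPML1-DL cells. The cells were seeded at 1,500/well with Tet inducer, incubated about 16 h, then dye-loaded at room temperature.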
The depositor's hits bear a star; ? = inconclusive; / = not tested or not shown; & = joins results of further samples.

SMILES | TRPML1 inh | CtBP-E1A blk | D2 PAM | TRPV1 potentiator | Six1-Eya2 inh | TRPML1 ag
CC1(C)Cc2nc3sc(C(=O)NCCCO)c(N)c3cc2CO1 | -11 | / | -6 | -4 | -2 | 0.7
COc1ccc2nc3oc(C(=O)N4CCC(C(N)=O)CC4)cc3cc2c1 | -7 | -19 | 8 | / | -12 | 0.7
CCC(=O)Nc1nnc(SCCN2CCOCC2)s1 | 10 | / | -4 | 2 | 0 | 0.3
O=S(=O)(Cc1noc(-c2ccc(OC(F)(F)F)cc2)n1)c1ccc(F)cc1 | -6 | / | -21 | / | -3 | 2.1
COc1ccc(CNC(=O)c2ccc(CS(=O)(=O)c3ccc(OC)cc3)o2)cc1 | 4&-3 | -13 | -8 | / | 8 | -0.3&-0.8
CCc1cc(OCCCSc2nc(C)cc(=O)[nH]2)ccc1Cl | 48 | -6 | -2 | 9 | -9 | -0.7
COC(=O)c1ccccc1NC(=O)CNc1cc(OC)c(OC)cc1C | 10 | / | -2 | 14 | 6 | 1.3
CCN(CC)C(=O)CSc1nnc(COc2ccc(OC)cc2)n1N | 15 | -7 | -6 | 6 | 1 | 0.1
Cc1ccc(CN2CCN(CC(=O)NC(C)CCc3ccccc3)C2=O)cc1 (stereo not drawn) | -8 | 2 | 0 | 2 | -2 | 0.0
O=C(COC(=O)c1ccccc1C(=O)c1ccccc1)NCc1ccc(F)cc1 | 0 | 4 | -17 | -4 | 3 | -0.6
CCC(c1nnc(SCC(=O)Nc2ccc(C(N)=O)cc2)n1Cc1ccccc1)N(C)C (stereo not drawn) | -3 | -1 | 3 | 5 | 1 | 0.0
O=S1(=O)CCC(NS(=O)(=O)/C=C/c2ccccc2)C1 (stereo not drawn) | -3 | 57 | 5 | -8 | 27 | -0.5
O=C(NCCN1C(=O)S/C(=C\c2ccccc2)C1=O)C1CCN(S(=O)(=O)c2cccs2)CC1 | 6 | -9 | -9 | 12 | -11 | -0.5
Cc1ccsc1/C=N/NC(=O)CN1CCN(S(=O)(=O)c2ccc(Br)cc2)CC1 | 37 | -9 | -13 | -1 | -14 | 0.9
Cc1nnc(SCC(=O)NNC(=O)c2ccc(Cl)cc2)s1 | -13 | 0 | -1 | 17 | 6 | 0.2
O=C(/C=C/c1ccco1)N1CCN(S(=O)(=O)c2cccc([N+](=O)[O-])c2)CC1 | 4 | -8 | 16 | / | 1 | 2.1
O=C(CSc1nc(-c2ccccc2)cs1)NCCCN1CCCC1=O | 25 | 6 | -1 | / | 1 | 0.8
COc1c(Br)cc([N+](=O)[O-])c(OC)c1C(=O)NC(=O)Nc1c(Cl)cccc1Cl | -2 | 2 | 2 | / | -29 | 1.7
COc1ccc(Nc2nc3ccc(OC)cc3s2)cc1 | -17 | 0 | 7 | 21 | -4 | 1.0
CC(=O)Nc1ccc(S(=O)(=O)Nc2nnc(C3CCCCC3)s2)cc1 | 2 | 5 | -3 | 1 | 1 | 1.0
NS(=O)(=O)c1ccc(CCNC(=O)CNC(=O)COc2ccccc2)cc1 | 1 | / | -5 | -1 | 8 | 0.0
O=C(c1ccccc1)N1CCN(c2n[nH]c(=O)[nH]c2=O)CC1 | 39 | -9 | -9 | 0 | 11 | 0.5
COc1ccc2[nH]c(=O)c(CN(C)C(=O)c3ccncc3)cc2c1 | -2 | 8 | 6 | 5 | 4 | 0.5
CC(=O)c1c(COC(=O)c2ccccc2)nc2ccccc2[n+]1[O-] | -1 | -6 | 1 | 11 | -1 | 0.1
O=C(CNC(=O)OCc1ccccc1)NCC(=O)Oc1ccc([N+](=O)[O-])cc1 | 5 | 8 | -14 | / | 6 | -0.3
O=C1C2C3c4ccccc4C(c4ccccc43)[C@@H]2c2nc3ccccc3n21 (stereo partly drawn) | 96 | -1 | 15 | -13 | 7 | 4.4
Cc1nc(N2CCN(Cc3ccccc3)CC2)c(C#N)c2c1COC(C)(C)C2 | 10 | -4 | -55 | 10 | -16 | -0.1
COc1ccc(NC(=O)CN(C)S(=O)(=O)c2ccc3c(c2)NC(=O)CS3)cc1 | 6 | -2 | -11 | -6 | -1 | -1.4
CCCS(=O)(=O)N1CCC(C(=O)NCc2ccco2)CC1 | 16 | -2 | -19 | 10 | -1 | 0.1
O=C1Nc2ccc(NS(=O)(=O)c3cccs3)c3cccc1c23 | 31 | -2 | -26 | 0 | -16 | 1.1
O=S(=O)(Nc1ccc(N=Nc2ccc(O)c3ccccc23)cc1)c1ccccc1 | 7 | ? | -18 | -12 | ? | 0.3
CCCC(=O)NC(=S)Nc1ccc(S(=O)(=O)Nc2ccc(OCC)cc2)cc1 | -15 | 15 | -5 | 3 | 4 | 13
CCc1ccc(OCCCCN(C)Cc2ccccc2)cc1 | 1 | 15 | -5 | -1 | 20 | -0.1
O=c1ccc(-c2ccccc2)nn1Cc1ccccc1F | 6 | -5 | -10 | -6 | 1 | 0.6
Cc1ccc(C(=O)OC2=CC(=O)CC(C)(C)C2)cc1 | 18 | 9 | 19 | 29 | -29 | -0.9
O=C(CSc1n[nH]c(-c2cccnc2)n1)Nc1cccc(Cl)c1 | -12 | 4 | 1 | -41 | 4 | 0.0
CCN1CCN(C(=O)c2cc(COc3c(C)cccc3C)on2)CC1 | 31 | 6 | -15 | -10 | -1 | -0.3
O=C(CSc1nnc(-c2ccccc2)o1)NCC1CCCCC1 | ? | 3 | -10 | -12 | 2 | -0.3
CS(=O)(=O)Nc1ccc(C(=O)Nc2ccccc2Cl)cc1 | -11 | 0 | -5 | 2 | 31 | -0.5
COc1ccc(CN2CC(C(=O)N3CCOCC3)CC2=O)cc1 (stereo not drawn) | -4 | 0 | 6 | 2 | 9 | -1.3

Grouped by structure: those above containing a furan ring, fused or not
SMILES | TRPML1 inh | CtBP-E1A blk | D2 PAM | TRPV1 potentiator | Six1-Eya2 inh | TRPML1 ag
COc1ccc2nc3oc(C(=O)N4CCC(C(N)=O)CC4)cc3cc2c1 | -7 | -19 | 8 | / | -12 | 0.7
COc1ccc(CNC(=O)c2ccc(CS(=O)(=O)c3ccc(OC)cc3)o2)cc1 | 4&-3 | -13 | -8 | / | 8 | -0.3&-0.8
O=C(/C=C/c1ccco1)N1CCN(S(=O)(=O)c2cccc([N+](=O)[O-])c2)CC1 | 4 | -8 | 16 | / | 1 | 2.1
CCCS(=O)(=O)N1CCC(C(=O)NCc2ccco2)CC1 | 16 | -2 | -19 | 10 | -1 | 0.1

Next section:
SMILES | TRPML1 inh | CtBP-E1A blk | D2 PAM | TRPV1 potentiator | Six1-Eya2 inh | TRPML1 ag
Cc1ccnc(NC(=O)c2ccc(NC(=O)CC3SC(N4CCCC4)=NC3=O)cc2)c1 (stereo not drawn) | 12 | -17 | -2 | 7 | 1 | 1.1
CCC(c1nnnn1-c1ccc2c(c1)OCCO2)N1CCN(c2ncccn2)CC1 (stereo not drawn) | / | 1 | / | / | -6 | -0.8
O=C1NC2=C(C(=O)CCC2)C(c2ccc([N+](=O)[O-])cc2)N1 (stereo not drawn) | -28 | 7 | -2 | 2 | -4 | 3.6
COc1ccc(-c2nnc(-c3ccc(Br)o3)o2)cc1OC | 3 | -5 | -9 | 1 | -3 | 0.6
CCOC(=O)c1ccccc1NC(=O)CSc1nc2ccncc2[nH]1 | 37&-1 | -16 | -2 | -5 | 2 | -0.9&-1.0
CCOC(=O)C1(Cc2ccc(OC)cc2)CCN(S(C)(=O)=O)CC1 | -5 | -3 | -5 | -10 | 2 | -0.4
O=C(N/N=C/c1cc(Br)ccc1O)c1ccccc1Cl | 7 | -79* | 11 | -5 | -88* | 3.6
Cc1noc(C)c1S(=O)(=O)N1CCCC(C(=O)NCCc2ccccc2)C1 (stereo not drawn) | 3 | -2 | -1 | 16 | 13 | -1.1
O=C(CN1C(=O)NC2(CCSC2)C1=O)NCc1ccccc1 (stereo not drawn) | 13 | -1 | -13 | 3 | 1 | 0.4
CCOC(=O)/C(C#N)=C/c1cn(CCOc2ccc(OC)cc2)c2ccccc12 | 6 | -4 | 1 | -3 | -7 | 1.5
N#Cc1c(Cl)nsc1NN | -9 | -4 | 4 | -3 | -19 | -0.5
O=C(Cn1cnc([N+](=O)[O-])n1)c1ccccc1 | 18 | -2 | 17 | -9 | -12 | -0.3
O=C1CSC(c2ccccc2F)N1c1ccccc1F (stereo not drawn) | / | 7 | 5 | 14 | 3 | /
COc1ccc(N=C2O/C(=C/c3sc(=S)n(CC4CCCO4)c3O)N=C2C#N)cc1 (stereo not drawn) | 2 | 0 | -31 | / | ? | -0.3
CN(C(=O)COC(=O)Cn1cnc2c1c(=O)n(C)c(=O)n2C)C1(C#N)CCCCC1 | 24 | 0 | -3 | 14 | 1 | -0.5
COc1ccc(CNCCC2(O)CC(C)N(C)CC2C)cc1OC (stereo not drawn) | 16 | 8 | -4 | -3 | -2 | 0.2
CCOC(=O)C#CC(CCc1ccccc1)OS(N)(=O)=O (stereo not drawn) | 8 | -3 | -6 | 7 | 1 | -0.8
CCN(CC)S(=O)(=O)c1cccc(NC(=O)c2cccc(S(=O)(=O)N3CCCC3)c2)c1 | 3 | 4 | 16 | 13 | -13 | 1.7
O=C(CSC1=NS(=O)(=O)c2ccccc2N1)c1ccccc1 | 14 | 0 | -8 | 5 | 1 | 0.5
CC1(c2nc3ccccc3[nH]2)CCC(=O)N1Cc1ccccn1 (stereo not drawn) | 12 | -13 | -4 | / | -11 | -0.8
CCn1c(=O)c2sccc2n2c(CCCC(=O)NC3CCN(Cc4ccccc4)CC3)nnc12 | -14 | -19 | -13 | 1 | -7 | 0.2
Fc1ccc(Nc2ccc(-c3ccc(F)cc3)nn2)cc1 | 10 | / | -18 | -10 | 1 | 3.6
CS(=O)(=O)N1CCN(C(=O)c2cc(-c3ccccc3)nc3ccccc23)CC1 | 1 | 43 | -8 | -6 | 21 | -0.1
O=C(CCC(=O)Nc1ccc(F)cc1)N/N=C/c1ccc(O)cc1O | -10 | ? | -18 | -1 | ? | -0.5
CCOC(=O)c1sc(NC(=S)NC(=O)c2ccccc2)nc1C | -1 | 8 | -6 | ? | 8 | 0.6
C[C@@H]1CCCCO[C@@H](CN(C)S(=O)(=O)c2cn(C)cn2)[C@@H](C)CN([C@H](C)CO)C(=O)c2cc(NC(=O)Nc3ccc(C(F)(F)F)cc3)ccc2O1 | 1 | 4 | 6 | / | -16 | 0.5
Cc1ccc(C(=O)OCC(=O)c2c[nH]c3ccccc23)cc1NC(=O)c1ccco1 | -12 | -17 | -1 | -1 | -2 | 2.7
CCCCC(=O)Nc1nnc(CCc2ccccc2)s1 | -3 | / | -1 | -6 | 5 | 0.9
COc1cc2c3c(c1OC)-c1cc4c(cc1CC3(C#N)N(C(=O)c1ccccc1)CC2)OCO4 (stereo not drawn) | 0 | -8 | -7 | / | -10 | 0.0

An excerpt from above, limited to CtBP-E1A blk and Six1-Eya2 inh:
| Structure | CtBP-E1A blk | Six1-Eya2 inh |
| --- | --- | --- |
| Fc1ccc(Nc2ccc(-c3ccc(F)cc3)nn2)cc1 | / | 1 |
| CS(=O)(=O)N1CCN(C(=O)c2cc(-c3ccccc3)nc3ccccc23)CC1 | 43 | 21 |
| O=C(CCC(=O)Nc1ccc(F)cc1)N/N=C/c1ccc(O)cc1O | ? | ? |

High-throughput results as filed in PubChem BioAssay.
